Source: PubChem BioAssay (National Center for Advancing Translational Sciences (NCATS))
Six1-Eya2 blk: qHTS Assay for Inhibitors of the Six1/Eya2 Interaction; AlphaScreen GST-Six1/His-Eya2 binding, biochemical; hits give low values; control for the full effect not named in the record; hit rate 0.56% among 360,000; Homeobox protein SIX1 (Homo sapiens) + Protein phosphatase EYA2 (Homo sapiens), …; activity change, % (no concentration beside the values); AID 651725, 2012; in the data active = activity change below about -65%; inconclusive = about -30% to -65%; inactive = above about -30%; also: % is scaled to controls: 0 for no effect and ±100 for the full control effect; compound concentration not given in the record
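AlphaScreen with GST-Six1 and His-Eya2 (5X mix: 250 nM and 500 nM), glutathione donor and nickel acceptor beads; buffer 50 mM Tris pH 8.0, 300 mM NaCl, 1 mM TCEP; 1 h at 37 C in the dark.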
TRPML1 inh: qHTS for Inhibitors of the Human Mucolipin Transient Receptor Potential 1 (TRPML1); Mucolipin-1 (Homo sapiens), Q9GZU1; TRPML1-inducible cells, Ca2+ dye fluorescence, FDSS; hits give low values; inhibition of EC80 agonist-evoked calcium signal; activity change, negative = inhibition, % (concentration not given with the values); hit rate 0.02% among 390,000; AID 624415, 2012; in the data active means activity change below about -50%; inconclusive means about -30% to -50%; inactive means above about -30%;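 also: stimulus is agonist 54-4 at its EC80 concentration; % is scaled to controls: 0 for no effect and ±100 for the full control effect; compound concentration not given in the record; the text of the record puts the active cut at -80%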
Target sequence (Q9GZU1 whole entry, looked up): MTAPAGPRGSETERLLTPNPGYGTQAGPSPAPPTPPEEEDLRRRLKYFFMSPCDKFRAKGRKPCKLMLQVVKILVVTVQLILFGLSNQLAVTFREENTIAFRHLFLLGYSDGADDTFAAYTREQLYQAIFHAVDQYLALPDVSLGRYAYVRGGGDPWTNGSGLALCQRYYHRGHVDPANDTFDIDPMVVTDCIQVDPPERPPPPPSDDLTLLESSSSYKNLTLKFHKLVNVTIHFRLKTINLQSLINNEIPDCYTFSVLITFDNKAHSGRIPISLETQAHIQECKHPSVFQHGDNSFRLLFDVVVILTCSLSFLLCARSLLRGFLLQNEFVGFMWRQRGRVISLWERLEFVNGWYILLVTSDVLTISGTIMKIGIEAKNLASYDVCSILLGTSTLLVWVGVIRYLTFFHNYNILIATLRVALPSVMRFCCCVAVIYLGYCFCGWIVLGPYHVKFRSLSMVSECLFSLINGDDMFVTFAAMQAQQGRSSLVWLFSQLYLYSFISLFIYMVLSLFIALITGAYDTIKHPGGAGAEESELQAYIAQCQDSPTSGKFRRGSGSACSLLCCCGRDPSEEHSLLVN
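TRPML1-DL cells, Tet-induced overnight (~16 h, 37 °C) at 1,500 cells/well, were loaded with Ca8 no-wash dye plus quencher for 45-90 min at room temperature. Compounds were pinned during FDSS kinetic reading; agonist 54-4 at EC80 (4 uM final) then added.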
D2 potentiator: Beta-Arrestin HTS for Positive Allosteric Modulators of the Human D2 Dopamine Receptor: Potentiators. D(2) dopamine receptor (Homo sapiens), P14416. DiscoveRx D2 beta-arrestin cells, luminescence, 90 min; 100% = 57 uM dopamine signal. potentiation, % (no concentration beside the values). hit rate 0.23% among 360,000; active = potentiation of 50% or more; inconclusive = 30% to 50%; inactive = 30% or less;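 also: compound concentration not given in the record; tested on top of an EC20 dose of dopamine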
Target sequence (P14416 whole entry, looked up): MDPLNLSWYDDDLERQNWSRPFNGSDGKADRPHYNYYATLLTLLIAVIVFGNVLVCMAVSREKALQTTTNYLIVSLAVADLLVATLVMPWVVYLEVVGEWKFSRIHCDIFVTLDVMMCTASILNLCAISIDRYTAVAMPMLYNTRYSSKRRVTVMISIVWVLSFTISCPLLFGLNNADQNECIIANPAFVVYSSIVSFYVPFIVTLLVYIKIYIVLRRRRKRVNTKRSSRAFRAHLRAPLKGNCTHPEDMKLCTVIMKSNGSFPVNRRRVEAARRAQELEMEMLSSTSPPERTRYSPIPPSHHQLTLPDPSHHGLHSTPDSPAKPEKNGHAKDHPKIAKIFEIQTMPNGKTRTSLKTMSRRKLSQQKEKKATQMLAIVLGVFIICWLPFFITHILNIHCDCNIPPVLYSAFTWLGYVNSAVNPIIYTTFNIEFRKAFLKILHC
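D2 cells co-treated with compound plus 50 nM dopamine (EC20) for 90 min at 37 deg C to detect potentiation. Beta-arrestin recruitment was read as enzyme-fragment luminescence after 1 h at ambient temperature. Full response was set by 57 uM dopamine.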
PINK1 modulator: A Quantitative High throughput Screen to Identify Chemical Modulators of PINK1 Expression; hit rate 0.2% among 410,000; Potency, µM (series often up to 76.6 µM), for inactives: at the highest dose activation (PINK1 increase), actives largely listed as activators; AID 624263, 2012; PINK1 immunofluorescence, high-content cytometry, 24 h; active = well fitted activation curve with a large enough effect; inconclusive = small, poorly fitted or top-dose-only effect; inactive = flat fitted curve, though single readings scatter; cell line not stated here;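 also: potency is read from the fitted curve at half-maximal effect; % of control where 0% means no effect; nearly all actives have a fitted effect of over 65% in size; a mitochondrial uncoupler was the plate control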
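Readout is PINK1 immunofluorescence, quantified alongside mitochondrial, cell and nuclear markers by laser-scanning microplate cytometry. Cells from a stable line were exposed to compound titrations (5 concentrations) for 24 hours, with CCCP controls.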
TRPML1 ag: qHTS for Agonists of the Human Mucolipin Transient Receptor Potential 1 (TRPML1) | Mucolipin-1 (Homo sapiens), Q9GZU1 | TRPML1-expressing cells, Ca2+ dye fluorescence, FDSS; host cell line not named in the record; reference of the full effect not given here | activation, % (concentration not given with the values) | hit rate 0.12% among 410,000 | AID 624414, 2012; in the data active = activation above about 50%; inconclusive = about 30% to 50%; inactive = below about 30%; also: 0% is about no effect; the text of the record puts the active cut at 80%
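Cells: TRPML1-DL, 1X Tet inducer, ~16 h at 37 degrees C/5% CO2. Dye: ABD Ca8 no-wash + quencher, 45-90 min RT. Read: 10 s baseline, compound add, 110 s agonist phase; 54-4 EC80 (4uM final), 110 s antagonist phase.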
D2 agonist: Beta-Arrestin HTS for Positive Allosteric Modulators of the Human D2 Dopamine Receptor: Agonists | DiscoveRx PathHunter D2 beta-arrestin, luminescence, 90 min; 100% = 57 uM dopamine signal | activation, % (concentration not given with the values) | hit rate 0.084% among 360,000 | AID 624465, 2012; in the data active = activation above about 40%; inconclusive = about 15% to 40%; inactive = below about 15%; also: compound concentration not given in the record; the text of the record calls up to 30% inactive
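DiscoveRx PathHunter D2 beta-arrestin cells (2,100/well) attached overnight, then compound-stimulated 90 min at 37 C in HBSS/10 mM HEPES/0.1% Tween-20 buffer; beta-galactosidase complementation read by luminescence after 1 h at ambient temperature. Dopamine 57 uM final (EC100) as control.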
Active calls of the source: *; ? = inconclusive; · = not tested or not shown; & = joins results of further samples; [ ] = another dose, or the depositor's remark.

SMILES	Six1-Eya2 blk	TRPML1 inh	D2 potentiator	PINK1 modulator	TRPML1 ag	D2 agonist
COc1cccc(-c2cn3c(n2)sc2cc(C(=O)NCCC4=CCCCC4)ccc23)c1	·	-5	·	1.4%	1.1	·
O=C(OCc1nc2ccc(Cl)cc2n1CCO)c1ccccc1C(=O)c1ccccc1	79	2	-6	0.9%	0.3	1.3
COc1ccc(N2CCN(C(=O)c3cc(S(=O)(=O)N4CCCCCC4)cn3C)CC2)cc1	·	1	·	1.4%	-0.5	·
COc1ccc2c(c1)-c1ccccc1S(=O)(=O)N(C)C2	3	6	·	-0.6%	-1.0	-4.7
O=C1NC(=S)S/C1=C/c1ccc(OC(=O)c2ccco2)cc1	-3	48	-8	0.1%	2.2	-6.6
COC(=O)Cc1[nH]nc2c1C(c1cc(OC)c(OC)c(OC)c1)C(C#N)=C(N)O2 (stereo not given)	3	-23	3	1.4%	0.2	?
O=C(CCc1ccc(S(=O)(=O)N2CCCCC2)cc1)c1nnc(-c2ccccc2)o1	-5	52	-8	-1.2%	-0.4	-0.9
COc1ccc(C2=NOC(Cn3nc(C(=O)NCc4cccc(C(F)(F)F)c4)cc3-c3ccccc3)C2)cc1 (stereo not given)	1	-7	-4	1.6%	3.7	-3.1
Nc1ccc2c(C(F)(F)F)cc(=O)oc2c1	14	2	0	-0.8%	-0.2	1.1
CC(=O)c1ccc(NC(=O)C(C)N(C)CC(=O)Nc2ccccc2Cl)cc1 (stereo not given)	-3	6	0	0.1%	0.8	-2.9
COc1cc(NCCCn2ccc(NC(=O)OCc3ccccc3)nc2=O)cc(OC)c1OC	-7	33	8	0.0%	-1.2	5.2
Cn1ccnc1SCC(=O)Nc1cccc(O)c1	1	20	-5	5.3%[38.3 µM]	2.0	-2.4
c1ccc(-c2noc(CN3CCN(c4cnccn4)CC3)n2)cc1	-3	-4	-4	-1.8%	0.9	-2.6
COc1ccc(S(=O)(=O)NC2CC2)cc1-n1cnnn1	1	-13	6	-1.6%	0.0	1.4
COC(=O)/C(N=Nc1cccc(C(F)(F)F)c1)=C(\C)O	-4	-1	11	-3.3%	-1.0	-0.6
COc1ccccc1C(=O)N/C(=C/c1ccccc1)C(=O)Nc1ccc(C(=O)O)cc1	-4	4	-2	-2.7%	-0.2	-2.6
COC(=O)CSc1nnc([C@H](CC(C)C)NC(=O)OC(C)(C)C)o1	2	29	-4	-0.2%[38.3 µM]	-0.3	-0.9
CCOc1ccc(OCc2ccc(C(=O)N/N=C(\C)c3ccccn3)cc2)cc1	?	-3	-15	2.3%	0.3	-7.4
CCN(c1ccccc1)S(=O)(=O)c1ccc(NC(=O)C(C)(C)C)cc1	3	4	-2	-4.4%[38.3 µM]	1.6	-4.5
COc1ccc(CNc2ncc(-c3ccc(F)cc3)n2C)cc1OC	-5	-11	-62	2.8%	-0.7	-5.0
COc1ccc(/C(O)=C2\C(=O)C(=O)N(Cc3ccco3)C2c2cc(OC)ccc2OC)cc1 (stereo not given)	2	-3	16	·	0.9	-0.2
COc1ccc(NC(=O)CN(C)C(=O)C2(c3ccccc3)CCCC2)cc1	5	-5	-2	-2.0%	-1.0	-0.3
Cc1nn2c(=O)cc(CSc3ccccc3NC(=O)c3ccccc3F)nc2s1	0	47	-5	-0.4%	0.3	-6.4
Cc1ccc(NP(=O)(c2ccc(N(C)C)cc2NC(=O)c2cccs2)N2CCOCC2)cc1 (stereo not given)	-7	-7	-9	-1.5%	1.6	-2.4
COc1ccc(/C(C)=N/NC2=NCCN2)cc1Cl	-3	-3	-18	2.1%	1.3	-0.1
COc1ccc(C(=O)NC(C)CCc2ccccc2)c(OC)c1 (stereo not given)	16	5	-7	-1.5%	2.1	-0.2
Cc1ccc(NC(=O)CSc2nc(-c3ccc(F)cc3)nc3c2Cc2c(CO)cnc(C)c2O3)cc1C	·	16	·	0.2%	0.5	·
Cc1ccc(C2=NN(CCC(=O)NC3CCCC3)C(=O)CC2)cc1	-7	10	-10	-0.3%	-0.7	1.1
CCN(CC(=O)Nc1cccc(C#N)c1)CC(=O)Nc1cccc(OC)c1	12	32	-13	-0.7%	1.5	-2.4
COc1cc(/C=C2\SC(=Nc3ccc(Cl)c(C(=O)O)c3)NC2=O)c(Br)c(Br)c1O	?	-4	-1&-11	0.3%	67*	-3.9
COc1ccc2c(c1)c1c(c(=O)n(-c3ccc(C)cc3)c(=O)n1CC(=O)Nc1cc(C)ccc1C)n2C	·	4	·	1.6%	1.1	·
CCN1C(=O)NC(c2ccccc2)(c2ccccc2)C1=O	3	-7	-8	0.3%	0.8	-4.4
Cc1nnc(SCC(=O)Nc2ccc(S(=O)(=O)Nc3ccc(Cl)nn3)cc2)s1	-14	-2	-23	-1.1%	-0.2	-2.9
CC(Sc1nnc(C2CC2)n1C)C(=O)Nc1ccc(N2CCOCC2)cc1 (stereo not given)	8	-14	-12	1.7%	0.7	0.4
COC(=O)c1ccc(/C=C/c2c(-c3ccc(OC)cc3)oc3ccc(N4CCOCC4)cc23)cc1	4	-4	0	1.0%	0.3	-1.2
COc1cccc(NC(=O)CSc2nc3c([nH]c4ccccc43)c(=O)n2C)c1	20	46	-8	2.3%	0.5	-3.0
CC(=O)c1ccc(NC(=O)C(C)Sc2ccccn2)cc1 (stereo not given)	1	-4	0	3.3%	-0.5	0.2
O=C(CSc1nnc(Nc2ccccc2F)s1)NC1CCCC1	-2	15	-1	-2.1%	0.1	3.0
O=C(Nc1ccc2c(c1)oc1ccccc12)c1ccc(Br)o1	0	13	-1	5.9%	1.8	4.3
Nc1ccc(N=Nc2ccc(N)cc2)cc1	-11	17	-15	2.2%	5.0	-9.5
CCOC(=O)c1c(S(=O)(=O)N2CCCC(C(=O)NCc3ccc(Cl)cc3)C2)c(C)n(C)c1C (stereo not given)	·	15	·	0.2%	-1.2	·
CCOc1ccc(CCNC(=O)c2oc3c(c2C)-c2[nH]ncc2CC3)cc1OCC	-3	-2	-6	1.9%	0.7	4.1
O=C(COC(=O)CN1C(=O)C2CCCCC2C1=O)Nc1ccc(S(=O)(=O)N2CCOCC2)cc1 (stereo not given)	0	-21	-19	-1.6%	-0.3	-2.1
Cc1ccc(-n2nc(C)c3c2OC(N)=C(C#N)C3c2ccco2)cc1 (stereo not given)	-1	-6	-6	2.0%	0.1	-4.8
CN(C)C(=O)c1cccc(COc2ccc(N3C(N)=NC(N)=NC3(C)C)cc2Cl)c1	1	8	-10	0.2%	0.7	-4.0
COCCCNC(=S)NNC(=O)c1cc(-c2ccncc2)nc2ccccc12	0	-9	-46	3.7%	-0.1	-5.4
O=C(Nc1ccc(N2CCOCC2)cc1N1CCOCC1)c1cccs1	-2	31	-1	2.6%[38.3 µM]	-0.2	-3.5
CC(=O)Nc1ccc(S(=O)(=O)Nc2cc(-c3cn4ccccc4n3)ccc2C)cc1	·	10	·	4.9%	-0.6	·
COc1cc(O)c2c(c1)COC2=O	11	5	-10	-1.4%	-0.7	-2.8
CCOc1ccc2nc(CN3CCN(Cc4ccccc4OCC)C(CCO)C3)ccc2c1 (stereo not given)	-1	-1	-13	3.0%	0.1	0.9

Ordered by value in Six1-Eya2 blk (lowest first): 3 from the list above
canonical_smiles | Six1-Eya2 blk | TRPML1 inh | D2 potentiator | PINK1 modulator | D2 agonist
CCOc1ccc(CCNC(=O)c2oc3c(c2C)-c2[nH]ncc2CC3)cc1OCC | -3 | -2 | -6 | 1.9% | 4.1
O=C(Nc1ccc(N2CCOCC2)cc1N1CCOCC1)c1cccs1 | -2 | 31 | -1 | 2.6%[38.3 µM] | -3.5
COCCCNC(=S)NNC(=O)c1cc(-c2ccncc2)nc2ccccc12 | 0 | -9 | -46 | 3.7% | -5.4

Fetched one by one from the list above:
SMILES	Six1-Eya2 blk	TRPML1 inh	D2 potentiator	PINK1 modulator	TRPML1 ag	D2 agonist
COc1cc(O)c2c(c1)COC2=O	11	5	-10	-1.4%	-0.7	-2.8
O=C(COC(=O)CN1C(=O)C2CCCCC2C1=O)Nc1ccc(S(=O)(=O)N2CCOCC2)cc1 (stereo not given)	0	-21	-19	-1.6%	-0.3	-2.1
CCOc1ccc2nc(CN3CCN(Cc4ccccc4OCC)C(CCO)C3)ccc2c1 (stereo not given)	-1	-1	-13	3.0%	0.1	0.9

Continued:
SMILES	Six1-Eya2 blk	TRPML1 inh	D2 potentiator	PINK1 modulator	TRPML1 ag	D2 agonist
CCCC(=O)NC(=S)Nc1ccc(N2CCOCC2)c(Cl)c1	0	16	3	-0.1%	-0.3	6.7
Cc1nc2cc(F)ccc2n1C1CCN(S(=O)(=O)c2ccccc2)CC1	-1	-21	28	1.4%	0.3	3.3
Cn1c(CCn2ccccc2=O)nc2cc(NC(=O)COc3ccccc3)ccc21	-1	5	-8	-0.9%	-0.4	1.6
O=C(Cc1cccc2ccccc12)NNC(=O)Nc1ccc(Cl)cc1	3	7	-12	7.1%	0.4	1.5
CCOC(=O)N1CCN(C(=O)CN(C)S(=O)(=O)c2ccc3c(c2)c(=O)n(C)c(=O)n3C)CC1	-1	0	-7	-2.8%	0.4	7.7
COc1ccc(N2CCN(C(CNC(C)=O)c3ccc4c(c3)OCO4)CC2)cc1 (stereo not given)	-3	15	-19	-0.8%	0.0	-0.1
COCCCn1c(=S)[nH]c2sc3c(c2c1=O)CCCS3	12	-22	-3	0.0%	0.1	-2.2
CN1CCCN(C(c2ccccc2)c2ccc(Cl)cc2)CC1 (stereo not given)	-4	0	-36	-0.8%	3.2	-2.0
Cc1ccc(NC(=O)CCC(=O)N2CCC(C)CC2)c([N+](=O)[O-])c1	-3	-5	-11	0.2%	0.5	0.3
CS(=O)(=O)N1CCc2cc(C(=O)Nc3ccc(Cl)cc3)ccc21	-3	-17	-7	8.6%	0.1	-1.9
CCOC(=O)N1CCC(N2CCN(S(=O)(=O)c3ccc(OC)cc3)CC2)CC1	0	-4	-1	1.3%	-0.9	2.0
CC(=O)c1cccc(NC(=S)NC(=O)Cc2ccc(Cl)cc2)c1	0	-6	-17	-1.1%	25	-3.7
CCOC(=O)c1cc(C)n(CC2CCC(C(=O)Nc3ccccc3OC)CC2)c1C (stereo not given)	·	-16	·	2.6%	1.7	·

This is a random part of the collection; about 1% have a hit in one of these screens.
